GIV Gai3 FP: inhibitors of GIV GBA-motif binding to rat Galpha-i3; AID 1224905; Galpha-i3/FITC-GIV peptide fluorescence polarization, 90 min; hits give low values; scaled: aluminum fluoride 0%, vehicle 100%; percent of control (FP), % (concentration not given with the values); actives 0.42% (n = 210,000);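 active = replicate mean at 85% of control or lower, very high polarization wells dropped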;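 also: wells of about 15 µL received 100 nL stock; the first replicate is given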
Target sequence (P08753 whole entry, looked up): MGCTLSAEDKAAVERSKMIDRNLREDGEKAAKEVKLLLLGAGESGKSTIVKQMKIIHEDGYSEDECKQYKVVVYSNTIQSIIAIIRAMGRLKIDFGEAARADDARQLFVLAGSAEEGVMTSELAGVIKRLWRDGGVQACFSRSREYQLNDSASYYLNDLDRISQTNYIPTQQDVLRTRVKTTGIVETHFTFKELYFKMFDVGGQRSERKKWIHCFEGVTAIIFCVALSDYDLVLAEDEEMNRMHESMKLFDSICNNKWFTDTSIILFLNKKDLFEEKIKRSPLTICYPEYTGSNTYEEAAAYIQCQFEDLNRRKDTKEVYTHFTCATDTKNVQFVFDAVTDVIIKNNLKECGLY
An asterisk follows results filed as active. This is a subset, so the mix of outcomes need not match the whole.

Preview:
SMILES	GIV Gai3 FP
Cc1ccc(F)cc1N1C(=O)C(N2C(=O)c3cccc([N+](=O)[O-])c3C2=O)C1c1cccs1 (configuration not stated)	109
O=[N+]([O-])c1cccc(CSc2nc(NCC3CCCO3)c3ccccc3n2)c1 (configuration not stated)	114

This part in full (from the top)
SMILES	GIV Gai3 FP
Cc1ccc(F)cc1N1C(=O)C(N2C(=O)c3cccc([N+](=O)[O-])c3C2=O)C1c1cccs1 (configuration not stated)	109
O=[N+]([O-])c1cccc(CSc2nc(NCC3CCCO3)c3ccccc3n2)c1 (configuration not stated)	114
CC(=O)C1=NN(c2ccccc2)C(c2cccs2)N1C(C)(C)C (configuration not stated)	107
COc1cccc(C2C3CC(C(C)(C)C)CC=C3C(C#N)=C(N)C2(C#N)C#N)c1O (configuration not stated)	117
COc1cccc(N=Cc2ccc(O)c3c2OC(N)=C(C#N)[C@@H]3c2ccccc2[N+](=O)[O-])c1	119
CCOP(=O)(OCC)c1nc(-c2ccc(C)cc2)oc1N1CCOCC1	120
CCOC(=O)CNC(=O)N1CCCC1c1cc(C)no1 (configuration not stated)	105
COC(=O)c1c(C(C)(C)C)oc2c1cc(NS(=O)(=O)c1cc(C)ccc1C)c1ccccc12	109
CC(C)NC(=O)NC1CCN(C(=O)C2CCC2)C1 (configuration not stated)	105
O=C1CSC(c2cccnc2)N1c1ccc(Cl)cc1 (configuration not stated)	104
CCOc1ccccc1NC(=O)c1c(NC(=O)COc2ccccc2)sc2c1CCC2	111
CCc1nnc(NC(=O)CSc2nnc(-c3cc4ccccc4o3)n2CC)s1	103
CCN(CC)S(=O)(=O)c1ccc2nc(N3CCN(c4ccccn4)CC3)cnc2c1	106
CNC(C)(C)c1nnnn1-c1ccccc1	102
CCOC(=O)C1=C(C)N=c2s/c(=C/c3ccc(N4CCOCC4)o3)c(=O)n2C1c1c(OC)ccc2ccccc12 (configuration not stated)	104
Cc1ccc(C)c(CSc2nnc3c(=O)n(-c4ccc(Br)cc4)ccn23)c1	113
Cc1ccc(C2C3=C(CC(C)(C)CC3=O)Nc3ccc4ccccc4c32)cc1[N+](=O)[O-] (configuration not stated)	109
CCc1ccc2c(c1)[C@H]1OCC[C@H]1C(c1ccc(Br)cc1)N2 (some centres not stated)	100
CC1CC(=O)Nc2cc(S(=O)(=O)CCC(=O)N3CCc4ccccc4C3)ccc2S1 (configuration not stated)	100
CC1(C)CC(=O)c2cc3c(N)c(C(=O)Nc4ccc(Cl)cc4)sc3nc2C1	114

A second format for part of the listing above.
| canonical_smiles | GIV Gai3 FP |
| --- | --- |
| CC(C)NC(=O)NC1CCN(C(=O)C2CCC2)C1 (configuration not stated) | 105 |
| CCc1ccc2c(c1)[C@H]1OCC[C@H]1C(c1ccc(Br)cc1)N2 (some centres not stated) | 100 |
| COc1cccc(N=Cc2ccc(O)c3c2OC(N)=C(C#N)[C@@H]3c2ccccc2[N+](=O)[O-])c1 | 119 |

The results go on:
SMILES	GIV Gai3 FP
Clc1ccc(CN2CCN(Cc3ccc(Cl)cc3)C2/C=C/c2ccccc2)cc1	105
Cc1nc(N2CCOCC2)c2c(C)c(C(=O)Nc3ccc(Br)cc3C)sc2n1	111
O=S(=O)(Nc1ccc2oc3c(c2c1)CCCC3)c1ccc(Cl)cc1	110
CCCCC1(CC(=O)Nc2ccc(CC)cc2)C(=O)N(c2ccccc2)N(c2ccccc2)C1=O	107
CCOC(=O)C1CCN(C(=O)C2CCN(c3cc(C)nc4cc(-c5ccc(F)cc5)nn34)CC2)CC1	110
Cc1c(C(=O)NCc2ccco2)sc2ncnc(N3CCN(c4ccccc4F)CC3)c12	98
COc1cccc2cc(C(=O)N3CCc4ccccc4C3)c(=O)oc12	107
COc1ccccc1N(NC(=O)C(O)(c1ccc(F)cc1)c1ccc(F)cc1)C(C)=O	99
CCOc1ccc(NC(=O)C2CCCN(S(=O)(=O)Cc3ccc(F)cc3)C2)cc1 (configuration not stated)	94
O=C(c1cccc(CN2C(=O)C3CCCN3C(=O)c3ccccc32)c1)N1CCN(c2ccccn2)CC1 (configuration not stated)	99
CCOC1CCN(C(=O)NC(C)(C)C)CC1	100
COc1ccc(-c2cc(C(F)(F)F)n3nc(C(=O)NCc4ccc5c(c4)OCO5)cc3n2)cc1	107
Clc1cccc(C2N(Cc3ccccc3)CCN2Cc2ccccc2)c1Cl	106
O=C(NCCNCCO)c1c(O)c2cccc3c2n(c1=O)CCC3	115
COc1cc(CN2CCCC2c2cc(C(C)C)no2)ccc1O (configuration not stated)	106
O=C(NCCc1cnc[nH]1)c1ccc(NC(=O)c2nsc3ccccc23)cc1	106
COc1ccc(/C=C2\N=C(c3ccc(Cl)cc3)N(c3cccc(F)c3)C2=O)cc1OC	88
CNC(=O)c1ccc(-c2nc3cc(NS(=O)(=O)c4ccc(C(C)C)cc4)ccc3n2C)cc1	104
COc1cc(C2C(C(=O)N3CCCCC3)=C(C)NC3=C2C(=O)CC(C)(C)C3)ccc1OCc1ccccc1 (configuration not stated)	95
Cc1nc(N2CCN(c3ccccn3)CC2)c2c(C)c(C(=O)NCCN3CCOCC3)sc2n1	101
O=C(c1cc2n(n1)C(C(F)(F)F)CC(c1ccc3c(c1)OCO3)N2)N1CCN(c2ccccc2)CC1 (configuration not stated)	105
Cc1ccc(-c2nc(CN3CCC(C(=O)Nc4ccc(C(C)C)cc4)CC3)no2)cc1	103
CC1CCN(CCCn2c(SCC(=O)Nc3ccccc3Cl)nc3ccccc3c2=O)CC1	112
C=CCn1c(=O)c2sc(N(CC)CC)nc2n(CC(=O)Nc2ccc(Br)cc2)c1=O	95
Cc1c(NC(=O)C(C)N2C(=O)C3CCCCC3C2=O)c(=O)n(-c2ccccc2)n1C (configuration not stated)	103
Cc1ccc(S(=O)(=O)NCc2nnc(C(=O)Nc3ccc(F)cc3)s2)cc1	110
COCCNC(=O)C1CCCN1C(=O)c1ccc(NC(=O)c2ccc(Br)cc2)cc1 (configuration not stated)	104
CCCCn1c(CNC(=O)c2cccc(OC)c2)nnc1SCC(=O)Nc1sc2c(c1C(=O)OCC)CCC2	115
CCN1C(=O)CC(C(=O)Nc2ccc(OC)cc2)SC1=Nc1ccc2c(c1)OCO2 (configuration not stated)	122
COc1ccc([C@@H]2[C@@H](C(=O)c3ccccc3)N3c4ccc5ccccc5c4C=C[C@@H]3C2(C#N)C#N)cc1OC	122
CCCOc1ccc(-c2nn3c(=O)c(NC(=O)c4ccccc4Cl)cnc3o2)cc1	106
Cc1ccc(-n2nnnc2CNC(=O)Nc2ccccc2)cc1	99
CCOc1cc(C2Nc3ccc4ccccc4c3C3=C2C(=O)CCC3)ccc1O (configuration not stated)	103
CCn1nc(-c2csc(S(=O)(=O)N3CCCCC3C)c2)ccc1=O (configuration not stated)	104
CC(=O)Oc1ccc(C(=O)Nc2ccc(S(=O)(=O)Nc3nc(C)cc(C)n3)cc2)cc1	108
CCOC(=O)c1c(NC(=O)CSc2nnc(CNC(=O)c3ccc(OC)c(OC)c3)n2C)sc2c1CCCCC2	105
Cn1nc(-c2ccccc2F)c2cc(C(=O)OCCOc3ccccc3)sc21	108
CCC(C)(C)NC(=O)c1cccc(-c2ccc(S(=O)(=O)NCc3ccccc3)cc2)c1	96
O=C(CSc1nc2ccccc2c(=O)n1NC(=O)CCc1c[nH]c2ccccc12)NCc1ccccc1	110
CCOc1ccc(-c2[nH]nc3c2C(c2ccccc2F)C(C#N)=C(N)O3)c(OCC)c1 (configuration not stated)	106
O=C(NCc1cccs1)c1ccc(N2CC3CC(C2)c2cccc(=O)n2C3)c(NC(=O)c2ccc(Br)o2)c1 (configuration not stated)	104
Cc1ccc(C)c(NS(=O)(=O)c2cc3c(c([N+](=O)[O-])c2)-c2c(cc(S(=O)(=O)Nc4cc(C)ccc4C)cc2[N+](=O)[O-])C3=O)c1	111
c1ccc(-c2noc(-c3cc(N4CCSCC4)nc4ccccc34)n2)cc1	96
CCn1cc(CN2CCCC2c2cc(C(C)C)on2)c2ccccc21 (configuration not stated)	151
Oc1cccc(C2Nc3ccc(Br)cc3[C@H]3OCC[C@@H]23)c1 (some centres not stated)	103
CC1(C)CC(=O)C2=C(C1)Nc1ccccc1N(C(=O)Nc1ccccc1)C2c1ccccc1 (configuration not stated)	98
Cc1ccccc1/C=c1/sc2n(c1=O)C(N)=C(C#N)C(c1ccccc1C)C=2C#N (configuration not stated)	108
Cc1ccc(CN(Cc2cc(=O)n3nc(C(C)C)sc3n2)CC(C)C)cc1	110
CC(C)(C)c1cc2oc3c(c2cc1OC(=O)c1ccco1)CCCC3	104
O=C(CSc1nc2ccc(NC(=O)c3ccccc3C(=O)O)cc2s1)NCc1ccccc1	113
CCc1nnc(NC(=O)CSc2nnc3ccc(-c4ccccn4)nn23)s1	103
Cn1c(-c2ccccc2)c(/C=C/C=C/C=C2/C(c3ccccc3)=[N+](C)c3ccccc32)c2ccccc21	249
Brc1ccc(-n2cc(-c3ccccc3)c3c(NCCN4CCOCC4)ncnc32)cc1	114
c1ccc(-c2nc3ccccc3nc2-c2ccccc2)cc1	99
O=S(=O)(NCc1ccc(F)cc1)c1ccccc1-c1nc(-c2ccccc2)no1	102
CCOc1ccc(NC(=O)CSc2nc(N)c(C#N)cc2C#N)cc1	111
CCn1c(=O)n(Cc2cccnc2)c(=O)c2cnc(-c3ccc(Cl)cc3)nc21	97
CC(C)NC(=O)C1CCN(C(=O)Nc2ccc(S(=O)(=O)N3CCOCC3)s2)CC1	108
Cc1ccc(S(=O)(=O)N2CCOCC2)cc1-c1nnc(-c2ccccc2)o1	106
CC(=O)Nc1ccc(C(=O)N(CCC2=CCCCC2)C2(C(=O)NCc3ccccc3)CCN(C(C)=O)CC2)cc1	105

Six entries drawn at random from the list so far:
SMILES	GIV Gai3 FP
CC(C)NC(=O)C1CCN(C(=O)Nc2ccc(S(=O)(=O)N3CCOCC3)s2)CC1	108
Cc1ccc(C)c(NS(=O)(=O)c2cc3c(c([N+](=O)[O-])c2)-c2c(cc(S(=O)(=O)Nc4cc(C)ccc4C)cc2[N+](=O)[O-])C3=O)c1	111
Cc1ccc(S(=O)(=O)N2CCOCC2)cc1-c1nnc(-c2ccccc2)o1	106
CC(C)(C)c1cc2oc3c(c2cc1OC(=O)c1ccco1)CCCC3	104
Cn1c(-c2ccccc2)c(/C=C/C=C/C=C2/C(c3ccccc3)=[N+](C)c3ccccc32)c2ccccc21	249
O=C(CSc1nc2ccc(NC(=O)c3ccccc3C(=O)O)cc2s1)NCc1ccccc1	113

Additional entries follow:
SMILES	GIV Gai3 FP
O=C1c2[nH]nc(-c3ccccc3)c2C(c2ccc(O)cc2)N1c1ccccc1 (configuration not stated)	109
Clc1cccc(-c2noc(Cc3nc(-c4ccccc4)cs3)n2)c1	102
CCOC(=O)CSc1nc2cc(C(=O)N3CCC(C(N)=O)CC3)ccc2c(=O)n1C1CCCCC1	107
O=C(Nc1cccc(Cl)c1)N1CCC2(CC1)Nc1ccccc1-n1cccc12	109
CCOc1cc(/C=C2\SC(NC(C)=O)=NC2=O)cc(Cl)c1OC(C)=O	107
CC1=NN(C(N)=O)C2(O)CC3C(C12)C3(C)C (configuration not stated)	110
C=CCn1c(SCc2nc(N)nc(Nc3ccccc3)n2)nnc1-c1cccc(OC)c1	117
O=C(Nc1sc2c(c1C(=O)Nc1ccc(Cl)cc1)CCCCC2)c1ccccc1	99
COc1cccc(C2CC(=O)Nc3c2c(C)nn3-c2ccc3nnc(C)n3n2)c1 (configuration not stated)	96
COc1ccc(OC)c(S(=O)(=O)n2c([N+](=O)[O-])cnc2C)c1	106
Cc1nnc(-c2ccc(S(=O)(=O)N3CCCC3)o2)o1	104
O=C1CC(c2ccccc2Cl)=Nc2ccccc2N1	113
CCC(=O)NC1=NC(=O)/C(=C/c2cn(C(=O)CC)nc2-c2ccc(F)cc2)S1	119
COc1ccc(NC(=O)CCc2c(C)n(C)c3cc(-c4ccccc4OC)nn3c2=O)cc1OC	104
Cc1ccc(-c2nn3c(=O)cc(CN4CCN(C(=O)c5ccc(Br)cc5)CC4)nc3s2)cc1	103
O=C(CC1Nc2ccccc2NC1=O)NCc1ccccc1 (configuration not stated)	111
O=C(CSc1nnc2ccc(C(=O)NCc3ccccc3)cn12)Nc1ccc2c(c1)OCCO2	97
CCN(CC)c1ccc(C2Nc3ccc4ncccc4c3C3=C2C(=O)CC(C)(C)C3)cc1 (configuration not stated)	106
O=C(NCc1ccco1)c1ccc2c(c1)nc(SCc1ccncc1)n1c3ccccc3nc21	114
COC(=O)CSc1nnc2c(S(=O)(=O)N3CCN(c4ccc(F)cc4)CC3)cccn12	100
COc1cc(OC)cc(-c2nc(-c3ccc4c(c3)Sc3ccccc3C(=O)N4C)no2)c1	100
O=C(Nc1ccc2c(c1)OCCO2)c1ccc(N2CC3CC(C2)c2cccc(=O)n2C3)c(NC(=O)c2ccc(F)cc2)c1 (configuration not stated)	110
COc1ccc(C2C3=C(CC(C)(C)CC3=O)Nc3ccccc3N2C(=O)CCC(=O)O)cc1 (configuration not stated)	99
c1ccc(-c2nc(N(c3ccccc3)c3ccccc3)s[n+]2-c2ccccc2)cc1	104
CCCCCn1c(SCC(=O)c2ccccc2)nc2cc(C(=O)N3CCN(C(=O)OCC)CC3)ccc2c1=O	104
CCC1=NN(C(=O)c2ccccc2OC)C(O)(c2ccc(OC)cc2)C1 (configuration not stated)	112
O=C(CN1CCN(C(=O)c2ccc(Cl)cc2)CC1)Nc1nnc(-c2ccccc2)s1	100
CCN1C(=O)c2cccc3c(S(=O)(=O)N4CCCC4)ccc1c23	107
Cc1csc(C2CCCN(C(=O)C3CC3)C2)n1 (configuration not stated)	108
CC(C)N1CCN(C(=O)CN2C(=O)C3CCCN3C(=O)c3cc(F)ccc32)CC1 (configuration not stated)	102
CCC(=O)N1c2cc(C)ccc2C(=C2SC(C(=O)OC)=C(C(=O)OC)S2)C(=S)C1(C)C	104
CCOc1ccc(C(=O)Nc2sc3c(c2-c2nc4ccccc4s2)CCN(CC)C3)cc1	-3.2*
O=C(c1ccc2c(=O)n(Cc3ccc4c(c3)OCO4)c(=S)[nH]c2c1)N1CCN(c2ccc(F)cc2)CC1	105
N#CC1=C(N)S[C@@H](C(=O)c2cccs2)[C@@H]1c1cccs1	105
COc1ccc(-n2c(=S)[nH]c3cc(C(=O)NCc4cccc(Cl)c4)ccc3c2=O)cc1OC	110

High-throughput results: PubChem BioAssay, ICCB-Longwood Screening Facility, Harvard Medical School
